TRPV1 PAM: HTS Assay for Compounds that Act as Potentiators of the Vanilloid Receptor 1 | potentiation, % at 8.33 µM | TRPV1-expressing cells, Fluo-8 calcium influx, capsaicin EC20 potentiation; host cell line not named in the record; control for the full effect not named in the record | Transient receptor potential cation channel subfamily V member 1 (Homo sapiens), Q8NER1 | 320,000 compounds, 0.02% hits; active means potentiation above 80%; inconclusive means 30% to 80%; inactive means below 30%; also: 0% is about no effect
Target sequence (Q8NER1 whole entry, looked up): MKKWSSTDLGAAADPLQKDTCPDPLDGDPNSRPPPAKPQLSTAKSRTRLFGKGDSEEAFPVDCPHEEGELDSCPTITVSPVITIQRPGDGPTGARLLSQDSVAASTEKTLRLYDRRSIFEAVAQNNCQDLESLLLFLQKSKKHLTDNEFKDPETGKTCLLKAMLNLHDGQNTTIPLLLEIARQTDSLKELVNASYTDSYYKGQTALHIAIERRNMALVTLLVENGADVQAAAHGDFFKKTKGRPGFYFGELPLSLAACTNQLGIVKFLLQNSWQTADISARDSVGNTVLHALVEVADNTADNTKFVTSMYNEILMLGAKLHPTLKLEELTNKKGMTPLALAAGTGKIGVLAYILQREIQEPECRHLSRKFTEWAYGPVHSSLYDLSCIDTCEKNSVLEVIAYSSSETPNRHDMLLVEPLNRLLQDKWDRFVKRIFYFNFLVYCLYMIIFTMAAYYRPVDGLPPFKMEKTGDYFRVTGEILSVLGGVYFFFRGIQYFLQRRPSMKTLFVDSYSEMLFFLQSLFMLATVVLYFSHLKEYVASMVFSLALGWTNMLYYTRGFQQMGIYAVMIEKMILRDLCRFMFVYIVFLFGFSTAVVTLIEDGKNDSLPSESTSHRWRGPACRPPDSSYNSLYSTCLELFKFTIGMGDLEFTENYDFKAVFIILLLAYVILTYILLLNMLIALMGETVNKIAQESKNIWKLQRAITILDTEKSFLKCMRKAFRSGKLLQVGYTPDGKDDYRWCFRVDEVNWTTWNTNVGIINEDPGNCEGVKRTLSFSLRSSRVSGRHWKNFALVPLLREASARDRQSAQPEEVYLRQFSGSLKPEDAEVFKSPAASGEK
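Cells expressing TRPV1 were dye-loaded with Fluo-8 and read kinetically: 10 s baseline, 3 min after compound (agonist portion), then 2 min after EC20 capsaicin (allosteric enhancer portion). Calcium-bound dye fluorescence at 480/520 nm.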
TRPML1 inh: qHTS for Inhibitors of the Human Mucolipin Transient Receptor Potential 1 (TRPML1). activity change, negative = inhibition, % (concentration not given with the values). 390,000 compounds, 0.02% hits. Mucolipin-1 (Homo sapiens), Q9GZU1. AID 624415, 2012. TRPML1-inducible cells, Ca2+ dye fluorescence, FDSS; hits give low values; inhibition of EC80 agonist-evoked calcium signal; in the data active means activity change below about -50%; inconclusive means about -30% to -50%; inactive means above about -30%;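 also: stimulus is agonist 54-4 at its EC80 concentration; % is scaled to controls: 0 for no effect and ±100 for the full control effect; the text of the record puts the active cut at -80%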
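Tet-induced TRPML1-DL cells loaded with Ca8 no-wash calcium dye were read kinetically on FDSS. Compound addition was followed by EC80 agonist 54-4 (4 uM final); inhibition was read over 110 s.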
Sfp inh: qHTS Assay for Inhibitors of Bacillus subtilis Sfp phosphopantetheinyl transferase (PPTase). 310,000 compounds, 3.5% hits. Potency, µM, inactives show max response, negative = inhibition, most hits filed as inhibitors. 4'-phosphopantetheinyl transferase ffp (Bacillus subtilis), Q9F4F7. Biochemical Sfp PPTase activity, qHTS. AID 1490, 2009; active = well fitted inhibition curve with a large enough effect; inconclusive = small, poorly fitted or top-dose-only effect, or another doubt; inactive = no such curve, though single readings can be large or run the other way;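 also: the enzyme is Sfp with the accession as filed and its product quenches rhodamine fluorescence; potency is read from the fitted curve at half-maximal effect; 0% = enzyme reaction without inhibitor and -100% = no enzyme wells; top concentration of the series not given in the record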
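With Hepes-Na pH 7.6 buffer containing 10 mM MgCl2, Sfp (15 nM) modified BHQ-2-YbbR (12.5 uM) using rhodamine-CoA (5 uM). Two reads 30 minutes apart at 525/598 nm yielded each well's rate.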
Menin MLL FP FL: qHTS Assay for Inhibitors Targeting the Menin-MLL Interaction in MLL Related Leukemias: Competition With Fluorescein Labeled MLL-derived Peptide | FP activity change, % at 61.4 µM | 290,000 tested, under 10 active | Fluorescence polarization, fluorescein-MLL peptide displacement from menin; inconclusive = falling polarisation curve, or a change in total fluorescence; inactive = total fluorescence flat and polarisation flat or rising; no compound was filed as active; the % refers to the polarisation; negative = inhibition;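 also: % of control where 0% means no effect; inhibitors lower the polarisation; unlabelled MLL peptide was the positive control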
PINK1 modulator: A Quantitative High throughput Screen to Identify Chemical Modulators of PINK1 Expression; 410,000 compounds, 0.2% hits; AID 624263, 2012; Potency, µM (doses to about 76.6 µM), for inactives: top-dose activation (PINK1 increase), most hits filed as activators; PINK1 immunofluorescence, high-content cytometry, 24 h; active = well fitted activation curve with a large enough effect; inconclusive = small, poorly fitted or top-dose-only effect; inactive = flat fitted curve, though single readings scatter; cell line not stated here;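 also: potency is read from the fitted curve at half-maximal effect; % of control where 0% means no effect; nearly all actives have a fitted effect of over 65% in size; a mitochondrial uncoupler was the plate control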
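Cells are seeded, rested 12 hours, then given compound at five concentrations or DMSO for 24 hours. After fixation, blocking and antibody staining, PINK1 amount and mitochondrial localization are scored; CCCP serves as control.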
TRPML1 agonist: qHTS for Agonists of the Human Mucolipin Transient Receptor Potential 1 (TRPML1). 410,000 compounds, 0.12% hits. activation, % (concentration not given with the values). TRPML1-expressing cells, Ca2+ dye fluorescence, FDSS; host cell line not named in the record; reference of the full effect not given here. Mucolipin-1 (Homo sapiens), Q9GZU1. AID 624414, 2012; in the data active = activation above about 50%; inconclusive = about 30% to 50%; inactive = below about 30%; also: 0% is about no effect; the text of the record puts the active cut at 80%
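Agonist activity was taken from a 110 s kinetic Ca2+ dye read on the FDSS after pinning compounds onto TRPML1-DL cells. The cells were seeded at 1,500/well with Tet inducer, incubated about 16 h, then dye-loaded at room temperature.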
ClpP mod: qHTS Assay for Activators of ClpP; Potency, µM (doses to about 57.5 µM), without a hit: top-dose activity change, negative = active; ATP-dependent Clp protease proteolytic subunit (Bacillus subtilis (strain 168)), P80244; 340,000 compounds, 1.9% hits; AID 651965, 2013; purified B. subtilis ClpP, FRET peptide cleavage, 20 min; active = well fitted falling curve with a large enough effect; inconclusive = small, poorly fitted or top-dose-only effect; inactive = no such curve, though single readings can be large or run the other way; also: potency is read from the fitted curve at half-maximal effect; the source files actives as falling curves though it sought activators and does not explain the sign; nearly all actives have a fitted effect of over 65% in size; many hits overshoot -100%
Target sequence (P80244 whole entry, looked up): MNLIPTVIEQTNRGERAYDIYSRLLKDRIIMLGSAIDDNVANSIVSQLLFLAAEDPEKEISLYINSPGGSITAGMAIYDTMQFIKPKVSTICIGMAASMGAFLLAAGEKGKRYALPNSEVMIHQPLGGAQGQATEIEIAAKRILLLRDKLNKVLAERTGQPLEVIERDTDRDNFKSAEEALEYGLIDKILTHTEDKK
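FRET quenching reversal measured ClpP activation: 10 microg/mL B. subtilis ClpP at pH 8 with the FRET-FV decapeptide, read at 430 nm after 320 nm excitation. The 20-min minus 0-min signal was scaled between DMSO/no-enzyme wells and ADEP (5.8 microM final).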
* = called active by the depositor; ? = inconclusive; . = no result given; [ ] = dose if it differs, or a comment.

SMILES	TRPV1 PAM	TRPML1 inh	Sfp inh	Menin MLL FP FL	PINK1 modulator	TRPML1 agonist	ClpP mod
COc1ccc(Br)cc1CNC(=O)C1CCCN(S(=O)(=O)N2CC(C)CC(C)C2)C1 (configuration not stated)	-1	11	15%	4.1	-1.5%	2.3	0.1%
O=C(/C=C/c1cccs1)N1CCC2(CC1)Oc1ccc(Cl)cc1C(=O)C21CC(c2ccccc2)=NO1 (configuration not stated)	-5	1	23%	4.6	0.5%	0.3	0.4%
CC(=O)N1CCN(c2ccc([N+](=O)[O-])c(NCC3CCCO3)c2)CC1 (configuration not stated)	22	32	-2%	4.2	1.7%	0.2	-1.1%
C#CCOCCOCCOCCNc1nc(N2CCN(C(=O)Cn3cc(CCO)nn3)CC2)nc(N2CCN(C(=O)[C@H]([C@@H](C)CC)n3cc(CCCN=C(N)N)nn3)CC2)n1	.	18	.	.	0.2%	-0.5	0.6%
Cc1ccccc1N/N=C1\CCCNC1=O	10	1	?	2.0	3.1%	-0.8	-5.6%
CCC(=O)c1c[nH]c(C(=O)NCCc2ccccn2)c1	11	-18	17%	1.4	-1.4%	-0.8	1.0%
COc1ccc(C(=O)COC(=O)c2cc(=O)c3ccccc3o2)c(OC)c1	.	17	.	.	-0.7%	-1.0	-3.0%
CCCCn1nnnc1C1(C)CCC(=O)N1Cc1ccc(F)cc1 (configuration not stated)	.	.	.	.	-0.1%	0.2	-3.4%
Cc1ccc(Cc2c(-c3ccc(C)cc3)nc3c4ccccc4ccn23)cc1	.	-7	.	.	13%	0.9	-5.5%
COc1cc(-c2nnc(COc3ccc4cc(Br)ccc4c3)o2)cc(OC)c1OC	-4	-19	-14%	-3.2	.	0.6	-2.1%
Nc1nnc(-c2ccc(Cl)cc2Cl)s1	-9	11	13%	-2.6	-1.1%	0.0	.
CCN(CC)C(=O)CNC(=O)Cc1ccc(Cl)cc1	2	-11	-10%	1.6	5.0%[38.3 µM]	0.2	-1.8%
Cn1ncc2c(N3CCCCC3)nc(NCCCO)nc21	20	38	15%	.	0.7%	0.2	-1.0%
Cc1cc(C)cc(N(CC(=O)NC2CCCC2)C(=O)CCC(=O)Nc2nccs2)c1	-8	-6	2%	-3.0	4.1%	2.5	.
CCCc1cc(=O)n2[nH]c(-c3ccc(Cl)cc3)cc2n1	4	-2	8%	5.3	4.1%	-0.7	-4.9%
Cc1cc(C)c(NC(=O)COc2ccc3c(C)cc(=O)oc3c2)c(C)c1	.	-11	.	.	0.1%	2.2	4.2%
CCc1cccc(C)c1NC(=O)C1CN(S(=O)(=O)c2ccccc2)CCN1S(=O)(=O)c1ccccc1 (configuration not stated)	-8	-2	21%	0.3	-0.2%	0.2	25µM*
O=C(CCNC(=O)c1ccccc1Cl)Nc1cccc(C(F)(F)F)c1	6	-16	5%	8.9	0.9%	-1.3	0.0%
O=C(CCC(=O)c1cccs1)OCc1ccc([N+](=O)[O-])cc1	-1	2	.	.	-0.7%	1.3	-0.9%
N#CC(C(=O)NC1CCCCC1)c1nc2ccccc2nc1N1CCOCC1 (configuration not stated)	22	.	11%	?	.	.	.
CC(=O)N1CCN(Cc2nc3cc(NC(=O)COc4ccccc4)ccc3n2C)CC1	4	11	-21%	-1.8	1.6%	0.0	.
Cc1c(NC(=O)c2ccc(S(=O)(=O)N(C)c3ccccc3)cc2)c(=O)n(-c2ccccc2)n1C	11	5	15%	-1.4	1.7%	0.3	.
O=C(Nc1ccccc1C(F)(F)F)C1(S(=O)(=O)c2ccc(Cl)cc2)CC1	.	13	.	.	2.3%	5.1	-2.2%
Cc1ccc2c(c1)c1c3n2CCN(CC(N)=O)C3CCC1 (configuration not stated)	4	-11	19%	0.9	-1.3%	0.1	.
COc1ccc(C(C)(C)C)cc1NC(=S)NCCN1CCOCC1	-4	-3	18µM*	1.2	1.4%	1.1	-3.6%

Printed as active in Sfp inh (from the list above):
| canonical_smiles | TRPML1 inh | Sfp inh | Menin MLL FP FL |
| --- | --- | --- | --- |
| COc1ccc(C(C)(C)C)cc1NC(=S)NCCN1CCOCC1 | -3 | 18µM* | 1.2 |

Other results
SMILES	TRPV1 PAM	TRPML1 inh	Sfp inh	Menin MLL FP FL	PINK1 modulator	TRPML1 agonist	ClpP mod
COc1ccc(C)cc1S(=O)(=O)NCCN1CCOCC1	1	6	7%	-8.3	-1.5%	-1.0	-1.8%
CC(=O)c1cnc2nc(SCc3ccccc3C)nn2c1C	8	-12	-10%	-0.3	1.6%	-0.4	.
CCc1ccccc1NC(=O)CSc1nc(-c2ccccc2)nn1C(=O)c1cccc([N+](=O)[O-])c1	23	.	13%	-0.2	.	.	.
N/C(=N\OC(=O)c1ccco1)c1ccccn1	11	6	0%	4.2	0.7%	0.1	-1.0%
Cc1cccc(Oc2ccc(NC(=O)C3CC=CCC3C(=O)O)cc2)c1 (configuration not stated)	1	6	26%	2.3	3.4%	-1.0	.
COc1cccc(-c2nn(-c3ccccc3)cc2CN(C)Cc2c(C)nc3ccccn23)c1	16	19	56µM*	1.3	?	2.2	4.1%
CCn1cc(Cl)c(C(=O)NNC(=O)CCn2cc([N+](=O)[O-])cn2)n1	10	-4	0%	-1.1	0.7%	-0.3	0.4%
Cc1ccc(C)c(NC(=O)CN(C)S(=O)(=O)c2ccccc2)c1	-16	16	8%	-7.7	8.6%[38.3 µM]	0.1	1.4%
O=C(NCc1c(Cl)cccc1Oc1ccccc1)c1ccccc1	-19	-14	2%	0.3	0.9%	1.1	.
Cc1ccc(NC(=O)CCSc2nnc(-c3ccco3)o2)cc1	?	52	-17%	8.8	2.2%	0.8	0.4%
CCC(C)(C)C1CCC2(CC1)NC(=O)N(CC(=O)N(C)Cc1ccc(OC(F)F)cc1)C2=O (configuration not stated)	-19	6	.	.	12%	-0.8	.
CCc1ccc(NC(=O)c2cc3c(COC(C)=O)cnc(C)c3oc2=O)cc1	.	7	.	.	1.0%	-0.5	0.3%
O=C(COC(=O)c1ncc(Cl)c(Cl)c1Cl)NCCc1ccccc1	-12	-1	.	.	2.6%	-0.5	-2.1%
Cc1ccc(S(=O)(=O)Nc2ccc(S(=O)(=O)Nc3nccs3)cc2)c([N+](=O)[O-])c1	-9	-7	-17%	1.0	1.8%	-0.5	1.6%
O=C(NCC1CCCO1)C(=O)N/N=C/c1cc(Cl)ccc1O (configuration not stated)	5	-1	26%	20	3.8%	-0.1	.
CCCNC(=O)COc1ccc(S(=O)(=O)Nc2ccc(C)cc2)cc1	-23	42	-3%	-0.2	8.3%[38.3 µM]	1.1	-0.1%
CCOc1ccc(NC(=O)CSc2nc(=O)n(Cc3cccnc3)c3c2CCC3)cc1	-8	18	.	.	0.8%	1.8	-1.5%
CCCCN1C(=O)C(CC(=O)NCCCCc2ccccc2)CC(C(=O)N2CCCCCC2)=C1C (configuration not stated)	.	.	.	.	0.2%	-1.0	2.3%
CC(=O)c1c(C)[nH]c(C(=O)CN2CCN(S(=O)(=O)c3ccccc3)CC2)c1C	0	6	.	.	4.5%	-0.1	1.4%
CC(=O)c1sc(NC(=O)COc2ccccc2)nc1C	6	2	21%	1.9	-1.1%	0.1	.
c1csc(CN2CCOCC2)c1	10	-7	-17%	2.2	16%[38.3 µM]	-0.7	-2.0%
Cc1cc(C)nc(/N=C(\NC(=O)C(C)(C)C)Nc2ccc(F)cc2)n1	-4	8	-26%	-0.2	3.8%	-0.2	-19%
O=[N+]([O-])c1ccccc1S(=O)(=O)Nc1cccc(-c2ccc3nncn3n2)c1	10	-3	.	.	-2.1%	-0.2	.
COc1cc(NC(=O)C2=C(N3CCOCC3)/C(=C/c3ccc(Cl)cc3)CC2)cc(OC)c1OC	-1	-13	?	2.4	17%	1.5	-1.8%
O=C(CNCc1ccc(Cl)cc1)Nc1ccc2c(c1)OCCO2	-9	8	-24%	0.8	4.0%	0.4	0.6%

By substructure, those above with a tert-butyl group.
SMILES	TRPV1 PAM	TRPML1 inh	Sfp inh	Menin MLL FP FL	PINK1 modulator	TRPML1 agonist	ClpP mod
COc1ccc(C(C)(C)C)cc1NC(=S)NCCN1CCOCC1	-4	-3	18µM*	1.2	1.4%	1.1	-3.6%
Cc1cc(C)nc(/N=C(\NC(=O)C(C)(C)C)Nc2ccc(F)cc2)n1	-4	8	-26%	-0.2	3.8%	-0.2	-19%

(next part)
SMILES	TRPV1 PAM	TRPML1 inh	Sfp inh	Menin MLL FP FL	PINK1 modulator	TRPML1 agonist	ClpP mod
CCOC(=O)N1CCC(NC(=O)c2cc(C(=O)NC3CCCC3)ccc2CO)CC1	4	2	11%	-0.8	-0.2%	-0.6	0.6%
CCOC(=O)C1(C#N)C(=O)CSC1=Nc1ccccc1Cl (configuration not stated)	.	-5	.	.	0.0%	0.6	-2.8%
CC(C)c1ccc(N(CC(=O)NC2CCCC2)C(=O)CCC(=O)Nc2ccccn2)cc1	-2	11	10%	-5.5	1.8%	-0.9	-1.4%
CC1CCC(NC(=O)c2ccc3c(c2)N(Cc2ccccc2F)C(=O)c2ccccc2S3)CC1 (configuration not stated)	.	84	.	.	1.5%	2.2	-1.4%
Cc1ccc(C)c(CN2C(=O)c3ccccc3Sc3ccc(C(=O)NCc4ccc5c(c4)OCO5)cc32)c1	-3	-17	.	.	-1.5%	2.4	-3.0%
COc1ccccc1/C=C/c1nc(C#N)c(N2CCCCC2)o1	.	22	.	.	2.2%	1.5	4.7%
CCOc1ccc(N2CC(C(=O)Nc3ccccc3N3CCOCC3)CC2=O)cc1 (configuration not stated)	8	14	13%	4.2	-0.3%	-0.3	-2.4%
CCSc1cc(Cl)nc(N)n1	5	22	4%	0.6	2.3%	0.0	.
Fc1ccc2c(Cl)c(-c3nnc(-c4cccs4)o3)sc2c1	-7	21	-5%	-1.2	14%	-0.3	?

Assay outcomes deposited in PubChem by National Center for Advancing Translational Sciences (NCATS).
